Screens as filed in PubChem.
HIV Env fusion = inhibitors of HIV Env-mediated cell fusion; AID 651610; 360,000 tested, 1.1% active; HeLa-JRFL Env/CEM21 cell fusion, luciferase; inhibition, % at 12.3 µM;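 active means mean replicate inhibition score of at least 50 and every replicate individually at or above 50; inconclusive means only one of the two criteria met; inactive means mean below 50 and not all replicates reaching 50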;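 further: 0% = plate neutral controls and 100% = maraviroc near 300 nM; one replicate is shown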
CSC inhib = blocks cancer stem cells; cancer stem cell-like cells viability, luminescence; inhibition, % at 7.5 µM; 300,000 tested, 1.1% active; AID 2717;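 active means mean at 75% or more and at least half the replicates too; inconclusive means mean and replicates disagree; tested in HMLE shEcad cells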;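 further: 0% = median of negative and 100% = median of positive control wells; the first replicate is given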
eIF4H inh = inhibitors of RNA binding by human eIF4H. Q15056. eIF4H fluorescence polarization binding assay. inhibition, % at 35 µM. 290,000 tested, 0.94% active. AID 2012;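 active means 50% or more with normal probe brightness, or confirmed in later tests; inconclusive means above 50% with abnormal brightness, or retests that disagree; inactive means below 50% or failed in later tests; about a fifth of its hits are not listed in these tables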;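 further: calls also rest on retests at 20 µM and on dose response follow-up; 0% = protein and probe with vehicle and 100% = probe without protein; strong numbers were not always called active; many hits fall short of the cut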
Rce1 inh = inhibitors of yeast Ras-converting enzyme. Q03530. yeast membranes, quenched prenylated peptide cleavage fluorescence. calls only. 290,000 tested, 0.27% active. AID 2563;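 active means fall in fluorescence gain of 50% or more versus controls, with final raw signal at or below 3038400; inconclusive means same 50% fall but final raw signal above 3038400; inactive means fall in fluorescence gain under 50%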;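 further: plate controls were neutral control wells for no effect and wells lacking membranes for full effect; tested at 10 µM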
Yeast UUG start = alters start codon recognition fidelity in yeast; S. cerevisiae UUG-firefly luciferase reporter, luminescence/redox ratio; activity score, % at 18.7 µM; 350,000 tested, 0.13% active; AID 602363;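 active means replicate mean at a twofold rise or more, about +100% in these data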;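 further: firefly luciferase made from a UUG start codon reports start codon fidelity; reporter light over untreated wells divided by growth signal over untreated wells; some hits fall short of that in this replicate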
PABP polyA inh = blocks human PABP binding to poly(A) RNA | P11940 | fluorescence polarization | inhibition, % at 35 µM | 290,000 tested, 1% active;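 active means 50% or more with normal probe brightness, or confirmed in later tests; inconclusive means above 50% with abnormal brightness, or retests that disagree; inactive means below 50% or failed in later tests; about a fifth of its hits are not listed in these tables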;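 further: calls also rest on retests at 20 µM and on dose response follow-up; controls were probe without protein and protein plus probe with vehicle; some compounds called inactive have numbers as strong as hits; many hits fall short of the cut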
Target sequence (P11940 whole entry, looked up): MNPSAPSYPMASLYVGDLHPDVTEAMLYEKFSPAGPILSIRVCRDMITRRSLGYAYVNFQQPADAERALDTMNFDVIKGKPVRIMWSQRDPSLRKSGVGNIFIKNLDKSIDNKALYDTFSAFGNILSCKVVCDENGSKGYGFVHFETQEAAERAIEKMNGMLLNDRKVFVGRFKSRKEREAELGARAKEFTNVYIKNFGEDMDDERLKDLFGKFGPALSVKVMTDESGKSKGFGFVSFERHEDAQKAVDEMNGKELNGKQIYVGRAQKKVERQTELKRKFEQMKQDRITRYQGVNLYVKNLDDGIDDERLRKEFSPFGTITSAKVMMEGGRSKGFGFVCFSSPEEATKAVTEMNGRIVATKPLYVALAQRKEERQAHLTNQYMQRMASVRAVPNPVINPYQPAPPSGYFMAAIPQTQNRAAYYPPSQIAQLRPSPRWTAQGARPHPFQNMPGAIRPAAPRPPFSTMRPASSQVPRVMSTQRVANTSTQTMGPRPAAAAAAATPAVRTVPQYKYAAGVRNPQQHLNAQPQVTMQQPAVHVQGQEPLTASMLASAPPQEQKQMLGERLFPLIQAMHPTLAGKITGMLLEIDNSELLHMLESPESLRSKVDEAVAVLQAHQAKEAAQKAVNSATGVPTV
MT1-MMP act inh = MT1-MMP (human) activation inhibition; P50281; HT1080 RFP-PRO-GFP cells, GFP/RFP ratio fluorescence, overnight; percent of plate control window, DMSO zero; GFP/RFP ratio change, % at 20 µM; 360,000 tested, 0.061% active; AID 651647;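 active means GFP/RFP ratio change of at least 30% with cell ATP level not reduced by more than half and red fluorescence within 50% of control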; further: strong numbers were not always called active
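Compound: 20 µM single dose, 1% DMSO / System: HT1080 RFP-PRO-GFP cells / Controls: DMSO and RFP-L50D-GFP cell wells / Read-out basis: GFP/RFP fluorescence ratio / Schedule: overnight compound exposure at 37 °C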
MT1-MMP act inh RFP = further read-out of MT1-MMP act inh, marked with its call; RFP signal change, %; measured here: RFP expression control read;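 0 = vehicle wells; hits needed this value within 50% of zero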
The depositor's hits bear a star; i = inactive; u = inconclusive; x = no result given. Rows were taken by chance (roughly 3% active in at least one column).

SMILES	HIV Env fusion	CSC inhib	eIF4H inh	Rce1 inh	Yeast UUG start	PABP polyA inh	MT1-MMP act inh	MT1-MMP act inh RFP
COc1ccc(CCC2(C)NC(=O)N(C(C)C(=O)N3c4ccccc4CC3C)C2=O)cc1 (stereo unspecified)	x	0.6	x	x	-0.6	x	0.2	-3.6
Cc1cccc(NC(=O)CSc2cc(C(=O)c3nccn3C)c3ccccc3n2)c1	-15.8	-0.1	0.6	i	x	7.4	-3.5	-7.3
CC(=O)c1c2c3c(cccc3n(C)c1=O)C(=O)c1ccccc1-2	x	-1.6	u	i	x	u	x	x
CCC(C(=O)Nc1ccc2c(c1)OCCO2)c1ccccc1 (stereo unspecified)	23.9	-0.3	2.9	i	1.3	-8.1	-1.1	1.9
CCCCCCCCCC(=O)N[C@@H]1c2cc(OC)c(OC)cc2C[C@H]1OCc1ccccc1	-16.6	x	x	x	-22.1	x	4.1	-0.6
CC(C)(C)c1ccc(C(=O)NCCC(=O)NCc2cccs2)cc1	7.0	3.0	-8.5	i	-10.4	7.6	-0.4	-1.9
O=C(CN1C(=O)c2ccccc2C1=O)Nc1ccc(S(=O)(=O)N2CCOCC2)cc1	-6.1	6.9	-8.4	i	14.3	-12.0	4.1	5.2
O=C(O)C/C=C(/NC(=O)OCc1ccccc1)C(=O)OCc1ccccc1	21.4	-9.8	9.5	i	x	7.6	-0.9	3.7
COc1ccc(NC(=O)Cn2cnc3c(nnn3-c3ccc(C)cc3)c2=O)cc1	x	-11.6	1.1	i	x	15.1	x	x
COCC(=O)Nc1nc(-c2ccc(C)cc2)c(C)s1	x	-19.8	4.9	i	-14.3	0.3	3.4	-4.2
COc1ccccc1-c1noc(CCC(=O)NC2CCCC2)n1	13.4	-17.3	-2.5	i	-11.5	8.4	-4.1	-2.4
O=C(Cc1c(F)cccc1Cl)NCC(=O)OCc1ccccc1	6.3	-9.2	x	i	x	x	1.2	5.2
Cc1cc(C(=O)N2CCc3c([nH]c4ccccc34)C2c2c(F)cccc2Cl)no1 (stereo unspecified)	-3.8	0.2	-8.0	i	x	2.8	-5.5	-0.6
Cc1ccc(/C=N/NC(=O)Cn2nnc(N)n2)o1	-0.1	5.9	8.7	i	-15.2	4.6	-2.5	-0.3
COc1ccc(NC(C)=O)cc1NC(=O)c1ccc(C#N)cc1	-13.7	-6.6	-3.3	i	-12.4	7.4	-3.0	-0.5
CCOP(=O)(OCC)c1nc(-c2cccc3ccccc23)oc1NCc1ccccc1	29.6	x	-2.2	i	14.2	13.8	4.0	-3.1
COc1ccc(OC)c(-n2c(-c3cccc(O)c3)n[nH]c2=S)c1	x	5.7	-0.9	i	-5.0	0.2	3.6	-0.7
COc1ccccc1CCNC(=O)C(=O)NCC1OCCN1S(=O)(=O)c1cccs1 (stereo unspecified)	5.4	5.8	8.2	i	-1.4	2.5	7.0	3.9
COc1cccc(NC(=O)c2cccc(Cl)c2)c1	-68.0	-3.2	x	x	-15.4	x	-1.9	-1.2
Cc1ccc(S(=O)(=O)c2nc(S(C)(=O)=O)sc2N2CCCCCC2)cc1	8.0	15.4	-1.9	u	19.6	23.7	-5.1	-0.9

Single records, as listed above. Values in the order: HIV Env fusion	CSC inhib	eIF4H inh	Rce1 inh	Yeast UUG start	PABP polyA inh	MT1-MMP act inh	MT1-MMP act inh RFP
O=C(CN1C(=O)c2ccccc2C1=O)Nc1ccc(S(=O)(=O)N2CCOCC2)cc1 is listed as -6.1	6.9	-8.4	i	14.3	-12.0	4.1	5.2
COc1ccc(NC(=O)Cn2cnc3c(nnn3-c3ccc(C)cc3)c2=O)cc1 is listed as x	-11.6	1.1	i	x	15.1	x	x

(further entries)
SMILES	HIV Env fusion	CSC inhib	eIF4H inh	Rce1 inh	Yeast UUG start	PABP polyA inh	MT1-MMP act inh	MT1-MMP act inh RFP
COc1ccc(OC)c(NC(=O)CN(C)CC(=O)Nc2ccccc2Br)c1	4.3	15.6	4.0	i	x	-2.1	-5.2	-3.2
CCc1c(C)nc2cc(C)[nH]n2c1=O	x	-15.7	-3.2	i	4.5	4.6	0.0	1.3
Cc1ccc(S(=O)(=O)Nc2nc3ccccc3nc2NCc2ccc3c(c2)OCO3)cc1C	-18.8	17.2	3.7	i	x	0.6	0.9	-4.4
O=C(c1ccc(F)cc1)C1CCN(C(=S)Nc2ccc(F)cc2)CC1	8.3	-14.9	4.6	i	-11.2	4.4	4.2	-6.5
CCN(CC(=O)Nc1c(F)cccc1F)C(=O)CCNC(=O)c1ccc([N+](=O)[O-])cc1	-1.6	x	x	i	-6.5	x	0.8	0.9
COc1ccc(NC(=O)c2nc[nH]c2C(=O)N2CCC(C)CC2)cc1	u	-12.2	6.7	i	-21.9	12.0	11.7	-3.5
CN(c1ccc(C(=O)N2CCc3ccccc3C2)cc1)S(C)(=O)=O	x	-0.2	6.3	i	-4.9	u	-2.3	-1.8
COc1ccc(NC(=O)c2ccc3c(=O)n(CC4CCCO4)c(=S)[nH]c3c2)c(OC)c1 (stereo unspecified)	-3.5	-8.6	-6.5	i	-23.1	1.5	1.2	-7.6
Cn1nnc(NC(=O)c2cccc(F)c2)n1	22.3	x	-12.7	i	-14.8	-0.5	2.3	3.5
CCCOc1ccc(CSC(=N)N)cc1C(=O)OC	7.1	26.4	7.2	i	-8.5	3.2	3.5	5.6
Fc1cccc(F)c1-n1c(CN2CCCCC2)csc1=S	-15.7	39.2	-9.0	i	x	7.0	-3.2	-9.3
Cn1ccsc1=NC(=O)c1cc(S(=O)(=O)N2CCOCC2)ccc1F	-3.5	-4.1	x	i	x	x	4.0	6.2
CCN1CCCC1CNC(=O)C(=O)NC(C)c1ccccc1 (stereo unspecified)	1.0	17.4	-8.3	i	0.9	-18.7	2.3	3.1
O=C(COC(=O)/C=C/c1ccc(OC(F)F)cc1)Nc1ccc(N2CCOCC2)cc1	-22.4	-1.1	x	i	x	x	2.1	4.8
Nc1nnc(SCC(=O)OCC(=O)Nc2ccccc2)s1	-4.3	-6.5	-3.8	i	x	-4.8	5.8	11.1
C=CCN1C=C2C(=O)C(C)(OC(=O)C3CCCC3)C(=O)C=C2C=C1c1ccsc1 (stereo unspecified)	-8.7	7.1	u	i	-8.2	u	-6.8	9.5
COc1ccc2sc(C)nc2c1NC(C)=O	x	-7.5	-9.4	i	-4.8	6.2	-4.4	4.5
CCOC(=O)c1ccc(NC(=S)NCCc2ccccc2F)cc1	0.4	-5.0	-2.7	i	0.9	1.6	3.4	-2.5
C=C[C@H]1[C@H](O[C@@H]2O[C@H](CO)[C@@H](O)[C@H](O)[C@H]2O)OC=C2C(=O)OCC[C@]21O	-2.4	-1.9	x	x	-14.2	x	2.2	3.2
COCCN1Cc2cccc(C(=O)Nc3c(C)cc(C)cc3C)c2C1=O	x	-5.6	1.1	i	0.7	-6.0	x	x
CN(C(=O)c1cccc(NC(=O)Cc2cccc([N+](=O)[O-])c2)c1)C1CCC1	-2.6	-19.0	x	x	-1.0	x	9.2	-4.8
CC(=O)/C(C[N+]1(C)CCCCC1)=N\O	x	-24.4	-1.2	i	-7.1	40.4	-2.2	-5.1
COC(=O)Cc1[nH]c(=S)[nH]c1C(=O)OC	10.3	0.5	3.0	i	-23.2	-3.6	-2.2	3.9
COC(=O)c1cc(C(=O)N2CCN(c3cccc(Cl)c3)CC2)cc([N+](=O)[O-])c1	-302.8	54.1	-1.1	i	x	-5.8	6.7	-10.1
O=C(Nc1ccccc1)N(C1=NCCCCS1)c1ccccc1	x	14.5	-7.4	i	-11.4	-9.6	1.1	2.9
N#C/C(=C/c1ccc(Br)s1)C(=O)NCCc1c[nH]c2ccccc12	3.0	29.2	-8.7	i	x	4.7	2.9	1.9
COc1ccc(NC(=O)c2ccc3c(=O)n(-c4ccc(OC)cc4OC)c(=S)[nH]c3c2)cc1	18.2	-19.0	11.2	i	x	-5.5	3.6	-21.5
NC(=O)c1ccc(N2CCN(c3ncc(C(F)(F)F)cc3Cl)CC2)cc1	-13.8	-1.4	-2.9	i	-24.8	6.6	6.7	0.2
CN(C)S(=O)(=O)c1ccc2c(c1)C(CC(=O)O)NC2=O (stereo unspecified)	-46.8	x	-8.5	i	14.7	-1.5	1.6	6.0
CCNC(=O)N(CC)C[C@H]1N[C@@](C)(C(=O)OC)[C@H]2C(=O)N(C)C(=O)[C@@H]12	2.5	-5.4	x	x	4.3	x	0.3	3.7
O=C(COC(=O)CCC1CCCC1)Nc1ccccc1OC(F)F	15.1	-14.4	-7.0	i	x	-11.5	-3.8	8.3
Cc1cc(C)cc(-n2c(SCC(=O)NCc3ccco3)nc3ccccc3c2=O)c1	x	7.7	-6.5	x	-13.5	-3.2	-9.5	-1.0
COc1ccc(-c2nnc(Sc3nc4ccccc4o3)c3ccccc23)cc1	x	41.8	10.9	i	x	3.4	-2.2	-3.3
O=C(c1cn(-c2ccccc2)nc1-c1ccccc1)N1CCOCC1	-13.3	-6.4	-6.8	i	4.2	-0.4	-0.1	2.2
CCc1cccc(NC(=O)CSc2nc3c(c(=O)[nH]2)CCCC3)c1	x	5.4	-4.9	i	x	-6.9	x	x
Cc1noc(C)c1S(=O)(=O)N1CCCC(C(=O)NCCC2=CCCCC2)C1 (stereo unspecified)	x	-13.9	4.9	i	-19.2	9.4	3.1	-2.4
NC(=O)c1ccc2c(=O)c(O)c(-c3cc(Cl)c(N)c(Cl)c3)[nH]c2c1	7.3	-10.0	16.6	i	-14.0	4.3	1.9	7.8
CC(C)OCCCNC(=O)c1ccc(CN2CCc3ccccc3C2)cc1	2.3	-12.2	-3.5	i	-2.9	-4.3	7.3	-5.5
C[C@H](CO)NC(=O)[C@@H]1C[C@H]1[C@@H](NP(=O)(c1ccccc1)c1ccccc1)c1ccccc1	-15.9	16.6	6.1	i	-4.7	4.9	2.2	3.1
CC1CCc2c(C(=O)NCc3ccco3)csc2C1 (stereo unspecified)	1.0	-12.3	-6.7	i	x	8.3	5.9	2.8

The list goes on (five carried over from the part before).
SMILES	HIV Env fusion	CSC inhib	eIF4H inh	Rce1 inh	Yeast UUG start	PABP polyA inh	MT1-MMP act inh	MT1-MMP act inh RFP
Cc1noc(C)c1S(=O)(=O)N1CCCC(C(=O)NCCC2=CCCCC2)C1 (stereo unspecified)	x	-13.9	4.9	i	-19.2	9.4	3.1	-2.4
NC(=O)c1ccc2c(=O)c(O)c(-c3cc(Cl)c(N)c(Cl)c3)[nH]c2c1	7.3	-10.0	16.6	i	-14.0	4.3	1.9	7.8
CC(C)OCCCNC(=O)c1ccc(CN2CCc3ccccc3C2)cc1	2.3	-12.2	-3.5	i	-2.9	-4.3	7.3	-5.5
C[C@H](CO)NC(=O)[C@@H]1C[C@H]1[C@@H](NP(=O)(c1ccccc1)c1ccccc1)c1ccccc1	-15.9	16.6	6.1	i	-4.7	4.9	2.2	3.1
CC1CCc2c(C(=O)NCc3ccco3)csc2C1 (stereo unspecified)	1.0	-12.3	-6.7	i	x	8.3	5.9	2.8
O=C(C1CC(=O)N(c2ccc(Br)cc2)C1)N1CCCC1 (stereo unspecified)	-65.2	-4.3	-0.7	i	-5.6	10.6	-1.2	5.1
Cc1ccc(CCC(=O)Nc2ccc([N+](=O)[O-])cc2)o1	-13.1	-9.5	-5.4	i	-1.5	3.6	0.5	-10.7
CCn1c(-c2ccncc2)n[nH]c1=S	-55.3	-9.7	2.0	i	-20.3	-11.0	-0.9	2.1
CCn1c(SCC(=O)Nc2cc(F)ccc2C)nnc1-c1ccccc1O	x	-14.2	8.0	i	1.0	-3.7	3.6	-1.2
CC(C)(C)c1cc(Br)c(O)c(N=Nc2ccc(S(=O)(=O)N3CCOCC3)cc2)c1	15.5	-0.2	2.2	i	-19.7	4.2	0.5	-2.7
CC(=O)/C=C/c1ccccc1O	-8.1	-7.9	-9.5	x	-13.5	-7.1	-1.0	-2.7
